CSC inhib: cancer stem cell inhibition. cancer stem cell-like cells viability, luminescence. inhibition, % at 7.5 µM. 300,000 tested, 1.1% active. AID 2717;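 active = mean at 75% or more and at least half the replicates too; inconclusive = mean and replicates disagree; tested in HMLE shEcad cells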;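 note: 0% = median of negative and 100% = median of positive control wells; the first replicate is given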
Env fusion inh: HIV envelope-mediated fusion inhibition. HeLa-JRFL Env/CEM21 cell fusion, luciferase. inhibition, % at 12.3 µM. 360,000 tested, 1.1% active;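 active = mean replicate inhibition score of at least 50 and every replicate individually at or above 50; inconclusive = only one of the two criteria met; inactive = mean below 50 and not all replicates reaching 50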;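 note: 0% = plate neutral controls and 100% = maraviroc near 300 nM; one replicate is shown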
UUG fidelity: alters start codon recognition fidelity in yeast; 350,000 tested, 0.13% active; S. cerevisiae UUG-firefly luciferase reporter, luminescence/redox ratio; activity score, % at 18.7 µM;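 active = replicate mean at a twofold rise or more, about +100% in these data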;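 note: firefly luciferase made from a UUG start codon reports start codon fidelity; reporter light over untreated wells divided by growth signal over untreated wells; some hits fall short of that in this replicate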
MT1-MMP act inh: MT1-MMP (human) activation inhibition; P50281; 360,000 tested, 0.061% active; AID 651647; GFP/RFP ratio change, % at 20 µM; HT1080 RFP-PRO-GFP cells, GFP/RFP ratio fluorescence, overnight; percent of plate control window, DMSO zero;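 active = GFP/RFP ratio change of at least 30% with cell ATP level not reduced by more than half and red fluorescence within 50% of control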; note: strong numbers were not always called active
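Assay system – RFP-PRO-GFP reporter HT1080 cells · Compound dosing – single dose of 20 µM compound, 1% DMSO final · Incubation – overnight compound exposure at 37 °C · Measure – GFP/RFP fluorescence ratio · Benchmarks – DMSO wells and RFP-L50D-GFP cells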
eIF4H FP inh: inhibitors of RNA binding by human eIF4H | Q15056 | eIF4H fluorescence polarization binding assay | inhibition, % at 35 µM | 290,000 tested, 0.94% active;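 active = 50% or more with normal probe brightness, or confirmed in later tests; inconclusive = above 50% with abnormal brightness, or retests that disagree; inactive = below 50% or failed in later tests; about a fifth of its hits are not listed in these tables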;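 note: calls also rest on retests at 20 µM and on dose response follow-up; 0% = protein and probe with vehicle and 100% = probe without protein; strong numbers were not always called active; many hits fall short of the cut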
Rce1 inh: yeast Ras-converting enzyme inhibition; Q03530; yeast membranes, quenched prenylated peptide cleavage fluorescence; calls only; 290,000 tested, 0.27% active; AID 2563;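 active = fall in fluorescence gain of 50% or more versus controls, with final raw signal at or below 3038400; inconclusive = same 50% fall but final raw signal above 3038400; inactive = fall in fluorescence gain under 50%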;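 note: plate controls were neutral control wells for no effect and wells lacking membranes for full effect; tested at 10 µM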
Target sequence (Q03530 whole entry, looked up): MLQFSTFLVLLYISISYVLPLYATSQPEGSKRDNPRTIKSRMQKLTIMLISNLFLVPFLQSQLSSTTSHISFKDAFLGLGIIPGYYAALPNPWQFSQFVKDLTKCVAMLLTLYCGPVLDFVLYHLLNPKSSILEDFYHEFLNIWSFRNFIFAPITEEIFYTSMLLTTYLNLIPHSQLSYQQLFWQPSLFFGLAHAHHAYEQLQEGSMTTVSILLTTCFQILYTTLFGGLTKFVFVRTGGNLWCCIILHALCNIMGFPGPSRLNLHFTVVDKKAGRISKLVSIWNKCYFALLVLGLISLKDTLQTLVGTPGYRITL
PABP polyA inh: PABP-poly(A) binding inhibition. PABP-poly(A) RNA binding, fluorescence polarization. inhibition, % at 35 µM. 290,000 tested, 1% active. AID 2014;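 active = 50% or more with normal probe brightness, or confirmed in later tests; inconclusive = above 50% with abnormal brightness, or retests that disagree; inactive = below 50% or failed in later tests; about a fifth of its hits are not listed in these tables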;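 note: calls also rest on retests at 20 µM and on dose response follow-up; controls were probe without protein and protein plus probe with vehicle; some compounds called inactive have numbers as strong as hits; many hits fall short of the cut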
Target sequence (P11940 whole entry, looked up): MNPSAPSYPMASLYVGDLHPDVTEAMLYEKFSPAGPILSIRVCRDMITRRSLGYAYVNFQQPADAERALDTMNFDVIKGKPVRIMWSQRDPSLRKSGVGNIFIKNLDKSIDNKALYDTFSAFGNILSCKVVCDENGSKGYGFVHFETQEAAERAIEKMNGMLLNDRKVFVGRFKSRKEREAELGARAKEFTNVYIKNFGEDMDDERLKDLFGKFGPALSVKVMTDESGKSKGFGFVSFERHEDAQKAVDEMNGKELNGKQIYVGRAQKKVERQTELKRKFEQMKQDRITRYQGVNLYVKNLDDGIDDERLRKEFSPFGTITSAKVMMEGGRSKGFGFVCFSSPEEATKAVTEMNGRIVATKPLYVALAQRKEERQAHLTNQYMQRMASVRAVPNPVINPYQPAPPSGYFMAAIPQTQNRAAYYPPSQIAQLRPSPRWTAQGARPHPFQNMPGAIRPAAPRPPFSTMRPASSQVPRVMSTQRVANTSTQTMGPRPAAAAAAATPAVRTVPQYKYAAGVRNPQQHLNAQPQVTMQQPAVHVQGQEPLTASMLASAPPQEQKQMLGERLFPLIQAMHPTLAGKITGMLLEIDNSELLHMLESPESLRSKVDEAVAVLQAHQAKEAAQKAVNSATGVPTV
MT1-MMP act inh RFP: recorded beside MT1-MMP act inh, whose call it bears; RFP signal change, %; measured here: RFP expression control read;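 0 = vehicle wells; hits needed this value within 50% of zero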
The depositor's hits bear a star; i = inactive; ? = inconclusive; . = no result given. The list is partial (hit frequency here may not be typical).

The opening 2 entries, ahead of the listing:
No.	SMILES	CSC inhib	Env fusion inh	UUG fidelity	MT1-MMP act inh
1	O=C(CN1CCN(C(=O)CNC(=O)c2ccc(N3CCCC3=O)cc2)CC1)Nc1cccc(F)c1	.	5	-11	2
2	CCOC(=O)/C=C/C(=O)Nc1nccs1	9	19	-23	2

No.	MT1-MMP act inh RFP	eIF4H FP inh	Rce1 inh	PABP polyA inh
1	3	.	.	.
2	-1	6	i	-3

The listing, from the start:
No.	SMILES	CSC inhib	Env fusion inh	UUG fidelity	MT1-MMP act inh
1	O=C(CN1CCN(C(=O)CNC(=O)c2ccc(N3CCCC3=O)cc2)CC1)Nc1cccc(F)c1	.	5	-11	2
2	CCOC(=O)/C=C/C(=O)Nc1nccs1	9	19	-23	2
3	CC(C)c1ccc(OCC(=O)NCc2ccco2)cc1	0	5	-18	1
4	Cc1ccc(NC(=O)CCn2c(=O)[nH]c3ccsc3c2=O)cc1C	-8	-7	-8	3
5	Cc1cccc(-n2nnc(C(=O)NC3CCCc4ccccc43)c2N)c1 (centres undefined)	45	37	-3	-8
6	O=C(NCCc1ccccc1)C1CCN(C(=O)c2ccc([N+](=O)[O-])cc2)CC1	-3	-18	.	-2
7	COc1ccccc1NC(=O)c1ccc(S(=O)(=O)N(C)c2ccccc2OC)cc1	0	-8	28	35*
8	O=C(Cn1cnc2c(nnn2Cc2ccc(F)cc2)c1=O)OCc1ccccc1	-12	.	-6	4
9	Cc1ccc(C(=O)OCC(=O)N(C)C2CCS(=O)(=O)C2)cc1[N+](=O)[O-] (centres undefined)	-7	27	.	-5
10	CCCS(=O)(=O)Nc1cccc(-c2ccc3nnc(C)n3n2)c1	.	2	.	9
11	COc1ccc(Cn2c(=O)cc(N)n(-c3ccccc3C)c2=O)cc1	23	14	-11	-2
12	Cc1ccccc1-c1cc2nc(NCCN3CCCC3)n(C)c(=O)c2s1	.	21	-25	4

No.	MT1-MMP act inh RFP	eIF4H FP inh	Rce1 inh	PABP polyA inh
1	3	.	.	.
2	-1	6	i	-3
3	5	-9	i	10
4	-1	-4	i	5
5	-8	-10	i	-5
6	2	-4	i	-3
7	-0.7*	.	.	.
8	9	-9	i	-4
9	-1	11	i	0
10	13	-2	i	0
11	-6	-8	i	1
12	5	.	.	.

Following part.
No.	SMILES	CSC inhib	Env fusion inh	UUG fidelity	MT1-MMP act inh
13	COc1ccc(N2CCN(C(=O)NCc3ccc(OC)c(Cl)c3)CC2)cc1	-9	13	.	1
14	CC1CCN(C(=O)COC(=O)C(C)N2C(=O)c3ccccc3C2=O)CC1 (centres undefined)	-13	-5	-7	-3
15	C=CC[C@@H](Cc1ccc(F)cc1)C(=O)OC[C@H]1CCCN1C(=O)[C@@H](CC=C)CC(=O)N[C@H](CO)Cc1ccccc1	3	-23	3	4
16	COCCCNc1nc2ccccc2nc1NS(=O)(=O)c1ccc(F)cc1	.	-7	6	2
17	CCN1CCN(c2nc(C)c3c(n2)CCCC3=O)CC1	-15	1	10	-16
18	Cc1sc2c(c1C)c(=O)n(-c1cccc(C(F)(F)F)c1)c(=O)n2CC(=O)NCc1ccco1	-11	7	1	0
19	N/C(=N\OC(=O)c1ccc([N+](=O)[O-])cc1)c1ccc(Br)cc1	-5	-36	-19	5
20	CSCCC(NS(=O)(=O)c1ccc(C)c(C(=O)O)c1)C(=O)O (centres undefined)	-6	2	.	3
21	COc1ccc(NC(=O)COC(=O)c2ccc3c(c2)OCO3)c(OC)c1	-22	-9	-17	2
22	CCOC(=O)c1[nH]ncc1[C@@H]1C[C@H]2CN(Cc3cccc(Cl)c3)C(=O)[C@]23CCCN13	-1	6	9	-6
23	CCOC(=O)C1CCCN(c2c(NCCc3ccc(C)cc3)c(=O)c2=O)C1 (centres undefined)	9	0	-12	1
24	O=C(Cn1c(=O)cnc2ccccc21)Nc1ccccc1N1CCOCC1	13	-6	-4	1

No.	MT1-MMP act inh RFP	eIF4H FP inh	Rce1 inh	PABP polyA inh
13	1	-6	i	-8
14	-3	.	.	.
15	-6	.	.	.
16	-1	6	i	14
17	-7	3	i	-14
18	1	-6	i	1
19	1	2	i	10
20	0	18	i	6
21	0	.	.	.
22	-3	-1	i	-3
23	3	2	i	5
24	1	1	.	-5

Continuation.
No.	SMILES	CSC inhib	Env fusion inh	UUG fidelity	MT1-MMP act inh
25	COc1ccccc1C(=O)N/C(=C\c1ccc2c(c1)OCO2)C(=O)NCCc1nc2ccccc2[nH]1	-7	10	-10	-2
26	CC(=O)c1nn(-c2cccc(Br)c2)cc1C(=O)c1ccco1	9	-120	-3	3
27	CCN(Cc1ccncc1)C(=O)C(CO)c1ccccc1 (centres undefined)	-1	1	-10	1
28	O=S(=O)(N/N=C1\CC(c2ccccc2)Oc2ccccc21)c1ccccc1 (centres undefined)	-9	.	5	-7
29	COc1ccc(/C=N/NC(=O)c2ccc(COc3ccccc3Cl)o2)c(OC)c1C	-5	26	-8	5
30	O=C1/C(=C/c2ccccc2F)SC(=S)N1CCC(=O)N1CCCCC1CCO (centres undefined)	15	-5	-21	-4
31	COc1cc(NC(=O)c2cc([N+](=O)[O-])ccc2NC(=O)CN2CCN(c3ccccn3)CC2)cc(OC)c1	14	21	-15	5
32	O=C(NCc1ccccc1F)C1CCCN(C(=O)Nc2ccc(F)cc2)C1 (centres undefined)	11	-4	-22	3
33	COc1ccc(NC2CCCN(C(=O)c3ccc4nccnc4c3)C2)cc1OC (centres undefined)	7	10	-1	-1
34	O=C1OCCC1Sc1nc2ccccc2c(=O)n1-c1ccc(F)cc1 (centres undefined)	-4	0	-14	1
35	CCCCCC(=O)Nc1ccccc1N1CCOCC1	8	25	-7	0
36	COC(=O)COc1ccc(Oc2nc(SC)nc(N(C)C)n2)nn1	-6	.	-12	3

No.	MT1-MMP act inh RFP	eIF4H FP inh	Rce1 inh	PABP polyA inh
25	-3	-6	i	-10
26	0	-6	.	5
27	5	0	i	0
28	-7	13	i	-3
29	0	-2	i	1
30	-1	.	i	.
31	-5	-34	i	4
32	4	-7	i	1
33	2	-10	i	-4
34	4	11	i	-9
35	-1	-2	i	11
36	4	-3	i	-5

One compound at a time (already shown).
Entry for `CC(=O)c1nn(-c2cccc(Br)c2)cc1C(=O)c1ccco1` = CSC inhib = 9; Env fusion inh = -120; UUG fidelity = -3; MT1-MMP act inh = 3; MT1-MMP act inh RFP = 0; eIF4H FP inh = -6; Rce1 inh = .; PABP polyA inh = 5
Entry for `O=S(=O)(N/N=C1\CC(c2ccccc2)Oc2ccccc21)c1ccccc1` (centres undefined) = CSC inhib = -9; Env fusion inh = .; UUG fidelity = 5; MT1-MMP act inh = -7; MT1-MMP act inh RFP = -7; eIF4H FP inh = 13; Rce1 inh = i; PABP polyA inh = -3
Entry for `COc1ccccc1C(=O)N/C(=C\c1ccc2c(c1)OCO2)C(=O)NCCc1nc2ccccc2[nH]1` = CSC inhib = -7; Env fusion inh = 10; UUG fidelity = -10; MT1-MMP act inh = -2; MT1-MMP act inh RFP = -3; eIF4H FP inh = -6; Rce1 inh = i; PABP polyA inh = -10

Next records
No.	SMILES	CSC inhib	Env fusion inh	UUG fidelity	MT1-MMP act inh
37	Fc1ccc(Oc2ccc3nnc(C(F)(F)F)n3n2)cc1	-3	-25	-4	1
38	Cc1c(N=Cc2ccc(-c3ccc(Cl)cc3)o2)c(=O)n(-c2ccccc2)n1C	-7	.	-12	0
39	Cc1ccccc1C(=O)N1CCC(C(=O)NCCc2ccc(S(N)(=O)=O)cc2)CC1	-11	3	2	-1
40	CCCN1C(=O)C(NC(C)=O)c2cc(OC)ccc21 (centres undefined)	-14	.	0	9
41	COc1ccc(C(C(=O)NC2CCCC2)N(C(=O)CNC(=O)c2ccco2)c2cccnc2)cc1 (centres undefined)	.	1	-10	2
42	CCCOc1ccc(Cl)cc1CN1CCOCC1	-11	.	.	0
43	Cc1cc2ncn(S(=O)(=O)N3CCOCC3)c2cc1C	.	.	-33	3
44	CCCC(CNC(=O)COC(=O)C1=NNC(=O)CC1)c1ccc(Cl)cc1Cl (centres undefined)	-15	4	.	5
45	CC(=O)c1ccc(S(=O)(=O)N2CCN(C(=O)CCC3CCCC3)CC2)cc1	.	8	-7	-3
46	O=C(NC(=S)Nc1ccccn1)c1cncc(Br)c1	-5	-12	.	0
47	COc1ccc2cc3cc(C(=O)N4CC(C)CC(C)C4)oc3nc2c1 (centres undefined)	-2	.	-21	3
48	CN(Cc1cccnc1)Cc1cn[nH]c1-c1ccc(-c2ccccc2)cc1	13	4	-7	-1

No.	MT1-MMP act inh RFP	eIF4H FP inh	Rce1 inh	PABP polyA inh
37	-1	-6	i	-1
38	-5	-11	i	-12
39	1	4	i	0
40	-2	-2	i	-3
41	4	-8	i	7
42	2	-7	i	7
43	3	0	i	4
44	0	.	.	.
45	-1	.	.	.
46	4	-4	i	-10
47	-3	-1	i	1
48	-1	0	i	-6

(continued)
No.	SMILES	CSC inhib	Env fusion inh	UUG fidelity	MT1-MMP act inh
49	CCOC(=O)Cn1c(=O)n(Cc2ccccc2)c(=O)c2cccnc21	-2	-12	6	1
50	COc1cc(/C=C/C(=O)OCC(=O)NCc2ccco2)ccc1O	.	6	-12	-7
51	CCN(Cc1ccncc1)C(=O)CCc1nnc(CCc2ccccc2OC)o1	0	3	.	0
52	O=[N+]([O-])c1ccc(/C=N/Nc2nc(NCc3ccccc3)nc(N3CCOCC3)n2)cc1	.	17	.	6
53	COC(=O)c1sc2nc(C)nc(SCC(=O)C(C)(C)C)c2c1C	3	3	.	0
54	O=C(COC(=O)/C=C/c1cccs1)Nc1ccc2ccccc2c1	14	-14	.	5
55	N#CC1=C(N)OC2=C(C(=O)CCC2)C12C(=O)N1CCCc3cccc2c31 (centres undefined)	-13	.	-12	1
56	O=C(Cn1nnc2ccccc2c1=O)NCCc1ccccc1	2	.	6	-3
57	COCCNC(=S)N(CCc1c(C)[nH]c2ccc(Cl)cc12)Cc1cccnc1	11	1	.	1
58	O=C(NNC(=O)c1ccc([N+](=O)[O-])cc1)NC1CCCCC1	4	13	.	1
59	N#CCc1nnc2n1-c1ccccc1CCC2	6	-11	-17	2
60	O=C(Nc1ccc(C(=O)O)cc1)/C(=C\C=C\c1ccccc1)NC(=O)c1ccccc1Cl	8	-94	-20	5

No.	MT1-MMP act inh RFP	eIF4H FP inh	Rce1 inh	PABP polyA inh
49	4	-4	i	-3
50	-5	.	i	.
51	5	-3	i	4
52	-5	-4	i	4
53	-5	7	i	-6
54	7	-2	i	-11
55	1	2	i	-3
56	2	5	i	8
57	3	-11	i	-4
58	-1	4	i	2
59	2	-12	i	-8
60	-4	-1	i	7

(listing goes on)
No.	SMILES	CSC inhib	Env fusion inh	UUG fidelity	MT1-MMP act inh
61	CC(=O)c1cccc(NC(=O)C2CCN(C(=O)c3ccccc3Cl)CC2)c1	-5	.	7	2
62	COc1ccccc1N1CCN(C(=O)CSc2nnc3c4ccccc4n(CC(=O)O)c3n2)CC1	5	.	-4	0
63	CN(Cc1cnn(C)c1)S(=O)(=O)c1cccc([N+](=O)[O-])c1	-9	?	-13	0
64	c1ccc(Nc2nnc(-c3cccnc3)s2)cc1	.	-51	.	1
65	CC(=O)Oc1ccc2c(=O)c(N3C(=O)c4ccccc4C3=O)c(C)oc2c1C	14	-15	.	0
66	CCCn1c(Nc2cccc(OC)c2)nc2ccccc21	-10	-52	-10	-3
67	Cc1ccccc1NS(=O)(=O)c1ccc(C(=O)NCc2ccccc2CN2CCCC2)cc1	.	i	-6	-2
68	CN(C)S(=O)(=O)c1ccc(C(=O)Nc2nc3ccccc3[nH]2)cc1	0	-54	-17	5

No.	MT1-MMP act inh RFP	eIF4H FP inh	Rce1 inh	PABP polyA inh
61	3	4	i	-6
62	4	1	i	-3
63	1	-12	i	5
64	1	-6	i	7
65	1	-9	i	-5
66	-5	6	i	-3
67	-5	.	.	.
68	-1	9	i	0

Compound activity from PubChem.
